# Screening data deposited in PubChem BioAssay by Center for Chemical Genomics, University of Michigan.
# HIV TAR-Tat: TAR RNA-Tat peptide displacers, HIV-1, primary screen, biochemical, FRET, FAM/TAMRA-labeled Tat; HIV-1 TAR RNA, Tat peptide displacement FRET; hits give high values; z-score (test concentration not listed); 100,000 compounds, 0.6% hits;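 further: score is relative to mean and SD of negative controls; some compounds called inactive have numbers as strong as hits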
# CDC25B-CDK2 inh: primary biochemical HTRF screen for blockers of M-phase inducer phosphatase 2 binding to CDK2/cyclin A | 94,000 compounds, 0.72% hits | HTRF CDC25B-CDK2/CyclinA binding, anti-His/anti-Flag; hits give high values | z-score (concentration not given with the values) | P30305+P24941 | AID 1259370, 2018;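 further: score is relative to mean and SD of negative controls; strong numbers were not always called active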
# * = called active by the depositor; . = not tested or not shown.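 How the source made its calls: active means z-score from 3 up in half or more of its runs; inactive means the rest.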
# The line under a structure holds: HIV TAR-Tat, CDC25B-CDK2 inh
- CCN(CC)C(=O)Cn1cc(SCC(=O)NC2CCCC2)c2ccccc21
    -0.22, .
- Cc1cc(NS(=O)(=O)c2ccc3c(c2)CCC(=O)N3)ccc1N1C(=O)c2ccc(Cl)cc2C1=O
    ., 0.11
- CN(CCNc1ncnc2onc(-c3cc(F)cc(F)c3)c12)Cc1ccccc1
    1.24, .
- Cc1csc2nc(CSc3n[nH]c(N)n3)cc(=O)n12
    1.17, .
- Nc1ccc(-c2nc3ccccc3[nH]2)c(N)c1
    ., -2.47
- CC(C)c1nnc2sc(-c3ccncc3)nn12
    -0.88, -0.9
- Cc1cc(C)n2c(Br)c(CSc3nncn3-c3ccccc3)nc2n1
    ., 0.23
- Cc1cc(C)c2c(=O)cc(C(=O)Nc3c(C)n(C)n(-c4ccccc4)c3=O)oc2c1
    -1.33, -1.16
- CCc1nnc2c(NCCCN3CCCC3=O)nc3ccccc3n12
    0.97, .
- N#Cc1cc2c(nc1SC1CCCCC1O)CCCC2 (stereo not drawn)
    ., -0.25
- N#Cc1c(N)nc(SCC(=O)c2ccc3ccccc3c2)c(C#N)c1-c1ccccc1
    ., -14.6
- Cn1c(C(=O)NC2CCCC2)cc2sccc21
    1.16, -1.91
- Cc1cc(C)c2nc(C)cc(C(=O)O)c2c1
    -0.82, 0.36
- CC(=O)N1N=C(c2ccncc2)OC12CCCCC2
    ., -1.14
- COc1ccc(Cl)cc1-n1nnc(-c2nc(-c3ccc(C)cc3)no2)c1C
    2.34, .
- CCc1cc2c(=O)c(-c3nc4ccccc4[nH]3)coc2cc1O
    -1.2, 0.65
- O=C(/C(=C\c1ccccc1)n1ccnc1)c1ccccc1OCc1ccccc1
    ., 0.94
- O=C(C1CCCN(S(=O)(=O)N2CCOCC2)C1)N1CCN(Cc2ccc3c(c2)OCO3)CC1 (stereo not drawn)
    -0.5, .
- O=C1C(=O)N(C2CCN(S(=O)(=O)c3ccc(Cl)cc3)CC2)CCN1Cc1ccccn1
    1.34, .
- Cc1ccc(-c2cc(C(F)(F)F)n3ncc(C(=O)OCC4CCCN(C)C4)c3n2)cc1 (stereo not drawn)
    1.74, -1.23
- CN(C)CCOc1nc(-c2ccccc2)nc2c1oc1ccccc12
    0.74, -1.56
- O=C1COc2cc(-c3c(NCc4ccccc4)c(=O)c3=O)ccc2N1
    -0.05, .
- CC(=O)N1CCc2cc(S(=O)(=O)NC(C(=O)NC3CCCc4ccccc43)C(C)C)ccc21 (stereo not drawn)
    ., -0.18
- Cc1nc2c(c(SCC(=O)NC3CCCCC3)n1)CCC2
    -0.91, -0.89
- COc1ccc(C2C(C#N)=C(N)Oc3n[nH]c(C)c32)cc1OC (stereo not drawn)
    0.05, -1.74
- O=C(NCC1CCCO1)c1ccc(N2C(=O)CCS2(=O)=O)cc1Cl (stereo not drawn)
    0.72, -0.02
- Cc1sc(-c2noc(C3CC3)n2)cc1S(=O)(=O)NCC(=O)N1CCCC1
    0.16, .
- CCOc1ccc(Nc2oc(/C=C/c3ccc(OC)c(OC)c3)nc2C#N)cc1
    -0.51, -1.55
- CCOC(=O)c1sc(N2C(=O)C(O)=C(C(=O)c3ccco3)C2c2cccs2)nc1C (stereo not drawn)
    0.27, -0.26
- COc1ccccc1NC(=O)N1CCC2(CC1)Nc1ccccc1-n1cccc12
    0.8, -0.63
- COc1ccc(-c2cc(C(=O)NCCc3cccc(Cl)c3)c3ccccc3n2)cc1OC
    ., -4.78
- CC1CCCCN1S(=O)(=O)c1ccc(NC(=O)c2nn(-c3ccc(F)cc3)ccc2=O)cc1 (stereo not drawn)
    -0.89, -1.17
- Nc1nc(-c2ccc(F)cc2)nn1C(=O)c1ccco1
    0.02, -0.4
- CCOC(=O)c1sc2nc(C)n(C)c(=O)c2c1C
    1.22, -2.26
- COc1ccccc1NS(=O)(=O)c1ccc(-c2cnc(C3CC3)o2)cc1
    0.65, .
- COc1ccc(NC(=O)N2CCn3c(C)ccc3C2C(C)C)cc1OC (stereo not drawn)
    0.53, .
- CCCCCCCCCCCCCCCC(=O)OC[C@H](O)[C@H]1OC(=O)C(O)=C1O
    17.2*, .
- COc1ccccc1/C=C/c1nc(C#N)c(NCc2ccc3c(c2)OCO3)o1
    1.13, 1.81
- Cc1cccc(C)c1Nc1c(-c2cccs2)nc2sccn12
    -0.36, -0.44
- N=S(=O)(c1ccc(Cl)cc1)c1cccs1 (stereo not drawn)
    ., -0.86
- Cn1c(=O)oc2cc(S(=O)(=O)N3CCC4(CC3)Nc3cc(F)ccc3-n3cccc34)ccc21
    -6.83, .
- CC(C)NC(=O)C1CCN(S(=O)(=O)c2ccc3c(c2)CCCC(=O)N3)CC1
    1.02, .
- COc1ccc2[nH]cc(/C=C3\C(=O)N(CCCN(C)C)c4ccc(F)cc43)c2c1
    2.75, .
- CCOC(=O)c1sc2nc(C)nc(Nc3ccc4c(c3)OCCO4)c2c1C
    0.44, -2.89
- CN(C)c1ccc(C2N(c3ccc(F)cc3)C(=O)C3CCCN32)cc1 (stereo not drawn)
    -1.64, -2.13
- Cc1ccc(C(=O)Nc2nnc(SCc3cc(=O)n4[nH]cnc4n3)s2)cc1
    1.57, .
- C=CCc1ccccc1OCc1cc(=O)n2c(C)csc2n1
    0.13, -1.27
- Cc1cc(C)cc(NC(=O)CSc2ccc(-c3cccs3)nn2)c1
    3.69, .
- Fc1ccc2c(c1)NC(c1ccncc1)=NC(c1cccs1)=N2
    0.29, -1.29
- CSc1ccc(-c2nc(C(N)=O)c3[nH]c(=O)n(-c4ccc(C)c(C)c4)c3n2)cc1
    -0.52, .
- CCN1C(=O)C(O)(CC(=O)c2ccc(C)cc2C)c2ccccc21 (stereo not drawn)
    0.56, 1.27
- O=C1CCSc2ccc(S(=O)(=O)N3CCOc4ccccc43)cc2N1
    1.05, .
- CSCCC(NS(=O)(=O)c1ccc2c3c(cccc13)C(=O)N2C)C(=O)O (stereo not drawn)
    1.49, -1.55
- CN1CCN(c2nc3c(c(=O)n(C)c(=O)n3C)n2CCSc2nc3ccccc3o2)CC1
    ., -0.43
- CCCCOc1ccc(C2c3c(oc4ccccc4c3=O)C(=O)N2c2nncs2)cc1OCC (stereo not drawn)
    0.83, 1.47
- Cc1ccc(/C=C/c2onc(C)c2[N+](=O)[O-])cc1S(=O)(=O)Nc1cccc(Cl)c1
    0.46, .
- CCOC(=O)Cn1c2ccc(Cl)cc2c2nc3ccccc3nc21
    0.94, 19*
- Cc1cc(-c2csc(Nc3ccc(S(N)(=O)=O)cc3)n2)ccc1F
    ., -2.31
- CC(=C/C(=O)O)/C(=C\c1ccncc1)C(=O)O
    ., -1.26
- CCOC(=O)C(C)Nc1n[nH]c(=S)[nH]c1=O (stereo not drawn)
    ., -0.47

# Copied from the results shown, 7 compounds:
# The line under a structure holds: HIV TAR-Tat, CDC25B-CDK2 inh
- Cn1c(=O)oc2cc(S(=O)(=O)N3CCC4(CC3)Nc3cc(F)ccc3-n3cccc34)ccc21
    -6.83, .
- CC(C)NC(=O)C1CCN(S(=O)(=O)c2ccc3c(c2)CCCC(=O)N3)CC1
    1.02, .
- COc1ccc2[nH]cc(/C=C3\C(=O)N(CCCN(C)C)c4ccc(F)cc43)c2c1
    2.75, .
- CCOC(=O)c1sc2nc(C)nc(Nc3ccc4c(c3)OCCO4)c2c1C
    0.44, -2.89
- CN(C)c1ccc(C2N(c3ccc(F)cc3)C(=O)C3CCCN32)cc1 (stereo not drawn)
    -1.64, -2.13
- Cc1ccc(C(=O)Nc2nnc(SCc3cc(=O)n4[nH]cnc4n3)s2)cc1
    1.57, .
- C=CCc1ccccc1OCc1cc(=O)n2c(C)csc2n1
    0.13, -1.27

# The listing continues:
# The line under a structure holds: HIV TAR-Tat, CDC25B-CDK2 inh
- COc1ccc(OC)c(CNS(=O)(=O)c2cc(-c3noc(C)n3)cs2)c1
    0.54, .
- c1ccc2c(c1)CCCN2c1nc2ccccc2n2nnnc12
    -3.36, -1.82
- CC(C)(C)c1ccc(Cn2ncc3ccccc32)cc1
    1.55, -2.09
- CN1C(=O)Cc2cc(S(=O)(=O)N3CCN(c4cccc(Cl)c4)CC3)ccc21
    1.79, .
- NC(=O)C1CCN(C(=O)c2noc3c2CCc2sccc2-3)CC1
    0.44, .
- COc1cc(NC(=O)CSC2=Nc3ccccc3C3=NC(CC(C)C)C(=O)N23)cc(OC)c1 (stereo not drawn)
    0.36, .
- Cn1c(C(=O)N2CCC(C(=O)O)CC2)cc2sccc21
    ., -1.25
- Cc1ccc(N(C)S(=O)(=O)c2cc(-c3cnc(C)o3)ccc2C)cc1
    0.87, .
- Cc1nc2ccc(Cl)cn2c(=O)c1NC(=O)CC(C)(C)C
    1, .
- Cc1oc2ncnc(N3CCOCC3)c2c1C(=O)N1CCN(C)CC1
    2.26, .
- COc1ccc(Nc2ncnc3onc(-c4ccc(F)cc4)c23)cc1OC
    0.42, .
- CC1CCN(C(=O)Cn2cnc3c(nc4n3CCCCC4)c2=O)CC1
    -0.3, .
- C=CCn1c(NCc2sccc2C)nc2ccccc21
    -0.03, -2.21
- O=C(Nc1ccccc1)C1=C(N2CCN(c3ccc(F)cc3)CC2)c2ccccc2S1(=O)=O
    1.81, .
- CCc1ccc2c(c1)C(NC(C)=O)C(=O)N2 (stereo not drawn)
    0.52, -0.37
- Cc1cccc(Oc2coc3cc(OC(=O)c4cccnc4)ccc3c2=O)c1
    -0.87, 1.49
- CC1=C(C#N)C(c2ccc3c(c2)OCO3)C2=C(CC(c3ccccc3)CC2=O)N1 (stereo not drawn)
    1.66, -0.83
- O=C(Nc1ccc2nc(NS(=O)(=O)c3ccccc3)sc2c1)c1cnccn1
    0, .
- CC1(C)CC(=O)C2=C(C1)Nc1ccccc1N(C(=O)Nc1ccccc1)C2c1cccs1 (stereo not drawn)
    -0.15, .
- COc1ccc(S(=O)(=O)[C@H]2CS(=O)(=O)C[C@@H]2NCc2ccc(OC)c(OC)c2)cc1
    2.34, -1.38
- Cc1nn(-c2ccccc2)nc1C(=O)ONC(=O)c1ccco1
    ., -1.69
- CS(=O)(=O)c1ncc(Cl)c(C(=O)N(Cc2ccccc2)Cc2ccco2)n1
    1.93, -2.66
- COC(=O)C1=C(C)N(c2ccc(C)c(C)c2)C(=O)C1
    1.9, -2.29
- NCCCCCCCCCCN
    ., -2.3
- CCOC(=O)C1=NOC2C(=O)N(c3ccccc3)C(=O)C12 (stereo not drawn)
    0.53, -0.52
- C/C(=N\Nc1cc(C(F)(F)F)ccc1Cl)c1ccc(C#CC(C)(C)O)s1
    ., 0.22
- CCOC(=O)COc1nsnc1N1CCOCC1
    0.38, 1.03
- Cc1ccc(Cl)cc1NC(=O)C1=Cc2sc(C)c(C)c2CS1
    -2.63, .
- O=C1CC(c2cccc(Cl)c2)Cc2nc(NCc3ccco3)ncc21 (stereo not drawn)
    -0.64, -1.19
- COCCc1nn2c(=O)cc(COC(=O)COc3ccc(C)c(C)c3)nc2s1
    0.47, .
- COc1cccc(-c2noc(NCCc3ccc(OC)c(OC)c3)n2)c1
    1.13, .
- O=C(NCC1CCCO1)c1ccc(CN2CC(=O)N3CCCC3C2=O)cc1 (stereo not drawn)
    2.51, .
- CC(=O)Oc1ccc(C)cc1C1OC(c2ccc(C)nc2)=NN1C(C)=O (stereo not drawn)
    1.21, .
- O=C1CCC([N+](=O)[O-])C(c2cccc(Br)c2)N1 (stereo not drawn)
    0.88, -1.28
- Cc1cc(C(=O)C(=O)Nc2nnc(-c3ccco3)s2)c(C)n1-c1ccc(Cl)cc1
    19*, -1.33
- CC(=O)N1c2ccc(S(=O)(=O)NCC3CCC(C(=O)NCc4ccco4)CC3)cc2CC1C (stereo not drawn)
    0.4, .
- CCOC(=O)Cn1nc2sc3ccccc3n2c(=O)c1=O
    ., -0.75
- O=C1CSC(c2ccccc2)N1Cc1ccccc1 (stereo not drawn)
    1.53, -0.53
- COc1cccc(-c2nc(-c3ccc(OC)c(OC)c3)no2)c1
    0.84, -6.11
- COc1ccc(C2c3c(noc3C)CC(C)(O)C2C(C)=O)cc1OC (stereo not drawn)
    ., -0.06
- O=c1ccc(-c2ccc(S(=O)(=O)N(CCCN3CCOCC3)Cc3ccco3)s2)n[nH]1
    0.23, .
- Nc1ccc(Cc2ccncc2)cc1
    2.23, -3.01
- c1ccc(-c2cn(-c3ccccc3)c3ncnc(NCC4CCCO4)c23)cc1 (stereo not drawn)
    ., -1.31
- COc1ccc(Cc2nc3c4c5c(sc4ncn3n2)CCCCC5)cc1
    1.47, -0.67
- CSc1ccccc1NC(=O)Cn1nc([N+](=O)[O-])c(Br)c1C
    -0.12, 0.82
- COc1ccc(Nc2c(-c3cccc(O)c3)nc3cnccn23)cc1
    -1.05, -3.54
- COc1ccc(Cl)cc1-c1noc(-c2cccnc2)n1
    1.07, -15.7
- Fc1ccc(COc2ccc(C3SCCS3)cc2)cc1
    ., -1.62
- Cc1ccc(C)c(S(=O)(=O)c2cn(C)c3cc(N4CCOCC4)c(F)cc3c2=O)c1
    -0.35, .
- Cc1ccccc1-c1nnc(CN2CCc3ccccc32)o1
    -0.62, -3.58
- CCOC(=O)c1c(C)oc2nc(C)nc(N3CCOCC3)c12
    1.25, .
- Cc1ccc(CN2CCN(S(=O)(=O)c3ccc4c(c3)oc(=O)n4C)c3cccnc32)cc1
    11, .
- CCN1CCCC1CNc1ncnc2onc(-c3ccc(C)cc3)c12 (stereo not drawn)
    1.11, .
- COc1cc(Br)c(C2C(C#N)=C(N)Oc3cc4c(cc32)OCO4)cc1OC (stereo not drawn)
    ., -2.17
- Cc1ccc(OCc2nn3c(Cn4nnc5ccccc54)nnc3s2)cc1
    1.35, -1.28
